Screens: PubChem, Broad Institute
A1 apoptosis 2: A1 inhibitors via caspase activation, primary screen, cell-based, luminescence, HTS, two replicates. AID 2465, 2010. MEF A1-2A-BIM cells, caspase-Glo luminescence, 3 h; percent of clofoctol response, DMSO zero. caspase activation, % (no concentration beside the values). 24,000 tested, under 10 active; in the data active = caspase activation above about 5.9%;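 note: wells of about 30 µL received 50 nL stock; the first replicate is given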
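system = A1-2A-BIM-expressing MEF cells | quantity = 2500 MEF cells/well | dosing = 50 nL compound per well, pinned | schedule = overnight cell settling, then 3 h compound exposure, 37 °C | signal = luminescence from DEVD-luciferin Caspase-Glo reagent, 1:1 in 50 mM HEPES, 1 h RT | read-out = Caspase-3/7 activation, seen as rise in luminescence signal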
Numbers without * were called inactive; & = joins results of further samples. Not all compounds are listed; the hit share may differ from the screen's.

#	Molecule	A1 apoptosis 2
1	Cc1noc(C)c1S(=O)(=O)Nc1ccc2c(c1)C(=O)N([C@@H](C)CO)C[C@@H](C)[C@H](CN(C)C(=O)Nc1ccc3c(c1)OCO3)OCCCC[C@H](C)O2	-0.1
2	COCCOC(=O)N1C(=O)[C@@]2(c3cc(C#CC4=CCCCC4)ccc31)[C@H](C(=O)N1CCN(c3ncccn3)CC1)[C@H]1C(=O)O[C@H](c3ccccc3)[C@H](c3ccccc3)N1[C@@H]2c1ccccc1OCCO	-0.6
3	CNC[C@H]1OCCCC[C@@H](C)Oc2ccc(NC(=O)NC3CCCCC3)cc2C(=O)N([C@H](C)CO)C[C@@H]1C	-0.3
4	C[C@@H]1CN([C@@H](C)CO)C(=O)c2cc(NC(=O)C3CC3)ccc2O[C@H]1CN(C)C	0.4
5	COc1ccc(S(=O)(=O)N(C)C[C@@H]2Oc3c(NC(=O)NC4CCCCC4)cccc3C(=O)N([C@@H](C)CO)C[C@@H]2C)cc1	0.8
6	C[C@H](CO)N1C[C@H](C)[C@H](CN(C)Cc2ccncc2)OCCCC[C@H](C)Oc2ccc(NC(=O)Nc3ccc(C(F)(F)F)cc3)cc2C1=O	-1.0
7	C[C@@H]1CN([C@@H](C)CO)C(=O)Cc2cc(NC(=O)Nc3ccc(C(F)(F)F)cc3)ccc2O[C@H]1CN(C)S(=O)(=O)c1cn(C)cn1	-0.3
8	C[C@@H]1CN([C@H](C)CO)C(=O)c2cc(N(C)C)ccc2O[C@@H](C)CCCCO[C@@H]1CN(C)C(=O)NC1CCCCC1	-0.9
9	CNC[C@H]1OCCCC[C@H](C)Oc2ccc(NC(=O)Nc3cccc4ccccc34)cc2C(=O)N([C@@H](C)CO)C[C@@H]1C	-1.1
10	C[C@@H]1CCCCO[C@@H](CN(C)Cc2ccncc2)[C@@H](C)CN([C@@H](C)CO)C(=O)c2cc(NS(=O)(=O)c3cn(C)cn3)ccc2O1	-0.3
11	Cc1ccc(S(=O)(=O)Nc2ccc3c(c2)C(=O)N([C@@H](C)CO)C[C@H](C)[C@H](CN(C)Cc2ccncc2)O3)cc1	1.3
12	Cc1noc(C)c1NC(=O)N(C)C[C@H]1Oc2ccc(NS(=O)(=O)c3cn(C)cn3)cc2C(=O)N([C@H](C)CO)C[C@H]1C	0.5
13	C[C@@H]1CCCCO[C@H](CN(C)C(=O)Nc2ccccc2)[C@@H](C)CN([C@H](C)CO)C(=O)c2cc(NC(=O)Nc3ccc4c(c3)OCO4)ccc2O1	1.3
14	C[C@@H]1CCCCO[C@@H](CN(C)Cc2ccc3c(c2)OCO3)[C@@H](C)CN([C@@H](C)CO)C(=O)c2cc(NC(=O)C3CCCCC3)ccc2O1	1.1
15	C[C@@H]1CCCCO[C@H](CN(C)S(=O)(=O)c2ccc(F)cc2)[C@@H](C)CN([C@@H](C)CO)C(=O)c2cc(NC(=O)C3CCCCC3)ccc2O1	-0.7
16	COc1ccc(CN(C)C[C@H]2Oc3ccc(NS(=O)(=O)c4ccccc4)cc3C(=O)N([C@@H](C)CO)C[C@H]2C)cc1	0.5
17	Cc1noc(C)c1NC(=O)Nc1ccc2c(c1)C(=O)N([C@H](C)CO)C[C@@H](C)[C@H](CN(C)C(=O)C1CCCCC1)OCCCC[C@@H](C)O2	-0.2
18	C[C@@H]1CCCCO[C@H](CN(C)Cc2ccc(Cl)c(Cl)c2)[C@H](C)CN([C@@H](C)CO)C(=O)c2cc(NS(=O)(=O)c3ccc(F)cc3)ccc2O1	-1.1
19	C[C@H]1CN([C@@H](C)CO)C(=O)c2cc(NC(=O)Nc3ccc(F)cc3)ccc2O[C@@H]1CN(C)S(=O)(=O)c1cccs1	-0.9
20	CC(C)NC(=O)Nc1ccc2c(c1)C(=O)N([C@@H](C)CO)C[C@H](C)[C@H](CN(C)C(=O)CCC(F)(F)F)OCCCC[C@H](C)O2	0.7
21	C[C@@H]1CN([C@@H](C)CO)C(=O)c2cccc(NC(=O)Nc3ccc(C(F)(F)F)cc3)c2O[C@H]1CN(C)Cc1ccc(C(F)(F)F)cc1	-0.4
22	C[C@@H]1CN([C@H](C)CO)C(=O)c2cc(NC(=O)Cc3ccccc3)ccc2O[C@@H]1CN(C)C(=O)NC1CCCCC1	0.1
23	C[C@H](CO)N1C[C@H](C)[C@H](CN(C)S(=O)(=O)c2cccs2)Oc2ccc(NS(C)(=O)=O)cc2CC1=O	0.5
24	C[C@@H]1CN([C@H](C)CO)C(=O)c2cc(NS(=O)(=O)c3cccs3)ccc2O[C@H]1CN(C)S(=O)(=O)c1ccccc1	0.6
25	Cc1noc(C)c1NC(=O)N(C)C[C@@H]1Oc2c(NC(=O)Nc3ccccc3)cccc2C(=O)N([C@@H](C)CO)C[C@@H]1C	-2.1
26	COc1ccc(NC(=O)N(C)C[C@H]2Oc3ccc(NS(=O)(=O)c4c(C)noc4C)cc3C(=O)N([C@@H](C)CO)C[C@@H]2C)cc1	0.3
27	Cc1noc(C)c1NC(=O)N(C)C[C@@H]1Oc2ccc(NC(=O)CCC(F)(F)F)cc2CC(=O)N([C@@H](C)CO)C[C@H]1C	-0.3
28	C[C@@H]1CN([C@H](C)CO)C(=O)Cc2cc(NC(=O)Cn3cnnn3)ccc2O[C@H]1CN(C)C(=O)NC1CCCCC1	0.3
29	C[C@@H]1CN([C@H](C)CO)C(=O)c2cc(NC(=O)CCC(F)(F)F)ccc2O[C@@H](C)CCCCO[C@H]1CN(C)C(=O)Nc1cccc2ccccc12	0.3
30	CC(C)NC(=O)Nc1ccc2c(c1)C(=O)N([C@@H](C)CO)C[C@@H](C)[C@H](CN(C)S(=O)(=O)c1cn(C)cn1)O2	0.4
31	CC(C)NC(=O)Nc1ccc2c(c1)CC(=O)N([C@@H](C)CO)C[C@H](C)[C@@H](CN(C)Cc1ccc(C(=O)Nc3ccccc3N)cc1)O2	-0.9
32	C[C@H]1CCCCO[C@H](CN(C)C)[C@@H](C)CN([C@@H](C)CO)C(=O)c2cc(NS(=O)(=O)c3cccs3)ccc2O1	-0.5
33	COc1ccc(/C=N/NC(=O)CCCCCCC(=O)Nc2ccccc2O)cc1OC	-0.6
34	C[C@@H]1CN([C@H](C)CO)C(=O)c2cccc(NC(=O)Nc3cccc4ccccc34)c2O[C@H]1CN(C)C(=O)Nc1cccc2ccccc12	2.1
35	C[C@H](CO)N1C[C@H](C)[C@H](CN(C)S(=O)(=O)c2cn(C)cn2)Oc2ncc(C#CCN(C)C)cc2C1=O	0.5
36	Cc1noc(C)c1NC(=O)N(C)C[C@H]1OCCCC[C@@H](C)Oc2ccc(NC(=O)Nc3ccccc3)cc2C(=O)N([C@H](C)CO)C[C@@H]1C	0.0
37	CNC[C@H]1Oc2c(cccc2N(C)C)C(=O)N([C@@H](C)CO)C[C@H]1C	-1.2
38	O=C(NO)c1ccc(C(=O)N/N=C/c2ccco2)cc1	-0.9
39	C[C@@H]1CCCCO[C@@H](CN(C)C(=O)Nc2ccccc2)[C@H](C)CN([C@H](C)CO)C(=O)c2cc(NC(=O)Cc3ccccc3)ccc2O1	-0.9
40	C[C@H](CO)N1C[C@H](C)[C@H](CN(C)S(=O)(=O)c2cn(C)cn2)Oc2ccc(N(C)C)cc2C1=O	0.4
41	COC(=O)c1ccc([C@H]2C=C(C(=O)O)O[C@@H](OCCCCO)C2)cc1	-2.6&-0.4
42	C[C@@H]1CN([C@@H](C)CO)C(=O)Cc2cc(NC(=O)c3ccncc3)ccc2O[C@H]1CN(C)C(=O)NC1CCCCC1	-0.6
43	C[C@@H]1CN([C@H](C)CO)C(=O)c2cc(NS(=O)(=O)c3cccs3)ccc2O[C@@H](C)CCCCO[C@@H]1CN(C)C(=O)CCC(F)(F)F	-1.2
44	CC(C)NC(=O)Nc1cccc2c1O[C@H](CN(C)CC1CC1)[C@@H](C)CN([C@@H](C)CO)C2=O	0.2
45	C[C@@H]1CCCCO[C@@H](CN(C)Cc2ccc(C(F)(F)F)cc2)[C@H](C)CN([C@@H](C)CO)C(=O)c2cc(NS(=O)(=O)c3ccc(Cl)cc3)ccc2O1	0.3
46	C[C@@H]1CN([C@H](C)CO)C(=O)CCCn2cc(nn2)CO[C@H]1CN(C)C(=O)Nc1ccccc1C(F)(F)F	-1.5
47	COc1cccc(S(=O)(=O)N(C)C[C@@H]2OCc3cn(nn3)CCCC(=O)N([C@H](C)CO)C[C@@H]2C)c1	-0.6
48	C[C@@H]1CCCCO[C@@H](CN(C)C(=O)CCC(F)(F)F)[C@@H](C)CN([C@H](C)CO)C(=O)c2cc(NC(=O)NC3CCCCC3)ccc2O1	0.0
49	C[C@H](CO)N1C[C@H](C)[C@H](CN(C)Cc2ccc(C(F)(F)F)cc2)Oc2ccc(NS(=O)(=O)c3cccs3)cc2CC1=O	0.9
50	C[C@@H]1CCCCO[C@@H](CN(C)C)[C@H](C)CN([C@@H](C)CO)C(=O)c2cc(NC(=O)Nc3ccccc3)ccc2O1	0.8

Looked up above.
For A1 apoptosis 2, C[C@@H]1CCCCO[C@@H](CN(C)C(=O)Nc2ccccc2)[C@H](C)CN([C@H](C)CO)C(=O)c2cc(NC(=O)Cc3ccccc3)ccc2O1 has -0.9
For A1 apoptosis 2, C[C@H](CO)N1C[C@H](C)[C@H](CN(C)S(=O)(=O)c2cn(C)cn2)Oc2ncc(C#CCN(C)C)cc2C1=O has 0.5
For A1 apoptosis 2, C[C@H](CO)N1C[C@H](C)[C@H](CN(C)S(=O)(=O)c2cn(C)cn2)Oc2ccc(N(C)C)cc2C1=O has 0.4

New compounds follow
#	Molecule	A1 apoptosis 2
51	COc1ccc(S(=O)(=O)Nc2ccc3c(c2)C(=O)N([C@H](C)CO)C[C@H](C)[C@@H](CN(C)Cc2ccc(C(F)(F)F)cc2)OCCCC[C@H](C)O3)cc1	-0.4
52	C[C@@H]1CN([C@@H](C)CO)C(=O)c2cccc(NC(=O)c3cnccn3)c2O[C@H]1CN(C)Cc1ccncc1	-0.1
53	C[C@H]1CN([C@@H](C)CO)C(=O)c2cccc(NS(=O)(=O)c3ccc(Cl)cc3)c2O[C@H]1CN(C)S(=O)(=O)c1ccccc1	-0.1
54	C[C@H]1CN([C@@H](C)CO)C(=O)c2cc(N(C)C)ccc2O[C@@H]1CN(C)Cc1ccc(C(=O)O)cc1	-0.1
55	C[C@H](CO)N1C[C@H](C)[C@H](CN(C)Cc2ccc(C(=O)O)cc2)OCCCC[C@H](C)Oc2ccc(NS(=O)(=O)c3cccs3)cc2C1=O	-1.7
56	C[C@H]1CN([C@@H](C)CO)C(=O)Cc2cc(NC(=O)Nc3cccc4ccccc34)ccc2O[C@@H]1CN(C)Cc1ccc(-c2ccccc2)cc1	-0.5
57	Cc1ccc(S(=O)(=O)Nc2ccc3c(c2)C(=O)N([C@@H](C)CO)C[C@H](C)[C@H](CN(C)C)OCCCC[C@@H](C)O3)cc1	1.7
58	C[C@@H]1CN([C@@H](C)CO)C(=O)c2cc(NS(=O)(=O)c3ccccc3)ccc2O[C@@H](C)CCCCO[C@@H]1CN(C)C(=O)C1CCCCC1	-0.2
59	COc1ccc(S(=O)(=O)N(C)C[C@H]2Oc3c(NC(=O)C4CCOCC4)cccc3C(=O)N([C@@H](C)CO)C[C@H]2C)cc1	0.1
60	COc1ccc(NC(=O)Nc2ccc3c(c2)CC(=O)N([C@H](C)CO)C[C@@H](C)[C@@H](CN(C)Cc2ccc4c(c2)OCO4)O3)cc1	1.7
61	C[C@@H]1CN([C@@H](C)CO)C(=O)CCCn2cc(nn2)CO[C@H]1CN(C)Cc1ccccc1C(=O)O	0.8
62	C[C@H](CO)N1C[C@H](C)[C@H](CN(C)Cc2ccc(C(F)(F)F)cc2)OCCCC[C@H](C)Oc2ccc(NS(C)(=O)=O)cc2C1=O	0.4
63	Cc1noc(C)c1NC(=O)Nc1cccc2c1O[C@H](CN(C)Cc1ccc3c(c1)OCO3)[C@H](C)CN([C@H](C)CO)C2=O	0.8
64	C[C@@H]1CCCCO[C@H](CN(C)C(=O)NC2CCCCC2)[C@H](C)CN([C@@H](C)CO)C(=O)c2cc(NS(=O)(=O)c3cn(C)cn3)ccc2O1	0.4
65	C[C@H]1CN([C@@H](C)CO)C(=O)Cc2cc(NC(=O)Cc3cn(C)c4ccccc34)ccc2O[C@@H]1CN(C)S(C)(=O)=O	-0.5
66	O=C(CCCCC(=O)N/N=C/c1ccc([N+](=O)[O-])s1)NO	-0.9
67	CNC[C@@H]1Oc2ncc(Br)cc2C(=O)N([C@H](C)CO)C[C@@H]1C	0.3
68	CC(C)NC(=O)N(C)C[C@@H]1OCCCC[C@H](C)Oc2ccc(NC(=O)NC3CCCCC3)cc2C(=O)N([C@H](C)CO)C[C@@H]1C	0.4
69	O=C(NCc1ccccc1)C(c1ccccc1)N(Cc1ccccc1)C(=O)Cc1ccccc1 (stereo unspecified)	0.1
70	C[C@@H]1CN([C@H](C)CO)C(=O)Cc2cc(NS(=O)(=O)c3ccc(Cl)cc3)ccc2O[C@@H]1CN(C)C(=O)Nc1ccccc1	-0.2

Retrieved by compound from the list above:
#	Molecule	A1 apoptosis 2
33	COc1ccc(/C=N/NC(=O)CCCCCCC(=O)Nc2ccccc2O)cc1OC	-0.6
50	C[C@@H]1CCCCO[C@@H](CN(C)C)[C@H](C)CN([C@@H](C)CO)C(=O)c2cc(NC(=O)Nc3ccccc3)ccc2O1	0.8
9	CNC[C@H]1OCCCC[C@H](C)Oc2ccc(NC(=O)Nc3cccc4ccccc34)cc2C(=O)N([C@@H](C)CO)C[C@@H]1C	-1.1
56	C[C@H]1CN([C@@H](C)CO)C(=O)Cc2cc(NC(=O)Nc3cccc4ccccc34)ccc2O[C@@H]1CN(C)Cc1ccc(-c2ccccc2)cc1	-0.5
10	C[C@@H]1CCCCO[C@@H](CN(C)Cc2ccncc2)[C@@H](C)CN([C@@H](C)CO)C(=O)c2cc(NS(=O)(=O)c3cn(C)cn3)ccc2O1	-0.3
38	O=C(NO)c1ccc(C(=O)N/N=C/c2ccco2)cc1	-0.9
